Assay outcomes (PubChem BioAssay)
ID4 SMM: binders of human ID4 protein, primary screen, biochemical, small molecule microarray, single point. Flag-ID4 binding, fluorescence F/B. calls only. 1.2% of 31,000 active. AID 624137, 2012;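 active = spot signal over background at p below 0.07 in all four prints; compounds were printed on slides so no solution concentration is given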;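 also: a binder raises fluorescence above local background on the spot; about 2 pmol printed per array spot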
Target sequence (P47928 whole entry, looked up): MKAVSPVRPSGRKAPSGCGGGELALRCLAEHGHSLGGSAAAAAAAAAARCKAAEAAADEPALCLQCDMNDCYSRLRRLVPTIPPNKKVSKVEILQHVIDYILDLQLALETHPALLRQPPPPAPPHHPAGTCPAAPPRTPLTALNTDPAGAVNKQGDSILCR
Calls only; i = inactive.

| Compound | ID4 SMM |
| --- | --- |
| CCn1c(SCC(=O)Nc2ccc3c(c2)OCCO3)nnc1-c1ccccc1 | i |
| CCc1nc(SCC(=O)Nc2ccccc2Cl)n[nH]1 | i |
| COc1ccccc1NC(=O)Cn1cnc2c1c(=O)n(C)c(=O)n2C | i |
| CC(C)NS(=O)(=O)c1ccc(OCC(=O)O)c(Cl)c1 | i |
| COC(=O)CCN(C(=O)c1ccc(C)c([N+](=O)[O-])c1)c1ccccn1 | i |
| O=C(COc1ccc(Cl)cc1Br)Nc1ccccc1C(=O)Nc1ccccc1 | i |
| COc1cc([N+](=O)[O-])ccc1NC(=O)CSc1nc(C)cc(C(F)(F)F)n1 | i |
| CC(=O)Nc1ccc(NC(=O)CN(c2ccc(C)cc2C)S(C)(=O)=O)cc1 | i |
| N#C[C@H]1[C@@H](c2ccc(C3=CCCCC3)cc2)[C@@H](CO)N1C(=O)C1CCOCC1 | i |
| CN(C)S(=O)(=O)c1ccc(NC(=O)CCC(=O)O)cc1 | i |
| COc1ccc(NC(=O)N[C@H]2C=C[C@H](CC(=O)NC3CCC3)O[C@@H]2CO)cc1 | i |
| CO[C@@H]1CN(C)C(=O)c2ccc(NC(C)=O)cc2OC[C@@H](C)N(Cc2cccc(F)c2)C[C@H]1C | i |
| Cc1ccc(F)cc1NC(=O)CSc1nc2ccccc2s1 | i |
| COc1ccc(NC(=O)CSc2nc3c(c(-c4cccs4)c2C#N)CCCC3)cc1 | i |
| O=C(C[C@H]1C=C[C@H](NC(=O)C2CC2)[C@H](CO)O1)NCc1ccccc1Cl | i |

A portion taken from the entries so far, as a working copy:
| Compound | ID4 SMM |
| --- | --- |
| CCn1c(SCC(=O)Nc2ccc3c(c2)OCCO3)nnc1-c1ccccc1 | i |
| CCc1nc(SCC(=O)Nc2ccccc2Cl)n[nH]1 | i |
| COc1ccccc1NC(=O)Cn1cnc2c1c(=O)n(C)c(=O)n2C | i |

Next results:
| Compound | ID4 SMM |
| --- | --- |
| C[C@@H]1CN([C@@H](C)CO)C(=O)c2cc(N(C)C)ccc2O[C@@H]1CN(C)Cc1ccc(C(F)(F)F)cc1 | i |
| CN(C)c1ccc2c(c1)[C@@H]1C[C@@H](CC(=O)NCc3ccccn3)O[C@@H](CO)[C@@H]1O2 | i |
| CC(=O)N[C@@H]1C=C[C@@H](CC(=O)NCc2ccc(Cl)cc2)O[C@@H]1CO | i |
| COc1ccc(-c2ccc([C@H]3[C@@H](CO)N(C(=O)CN(C)C)[C@H]3C#N)cc2)cc1 | i |
| COc1cccc(NC(=O)CCCC(=O)O)c1 | i |
| Cc1ccc(Cl)cc1NC(=O)CN(c1ccccc1F)S(C)(=O)=O | i |
| C[C@@H]1CN([C@H](C)CO)C(=O)c2cc(C#CCN(C)C)cnc2O[C@@H]1CN(C)C(=O)c1cccc(F)c1 | i |
| CCC(=O)c1ccccc1OCCCN1C(=O)NC(C)(C)C1=O | i |
| Cc1cccc(NC(=O)CN(c2ccc(Oc3ccccc3)cc2)S(C)(=O)=O)c1C | i |
| CCOc1ccc(C(=O)NCc2nc(-c3ccccc3)no2)cc1 | i |
| O=C(COc1ccc(Cl)cc1Br)NCc1ccccn1 | i |
| C[C@@H]1CN([C@H](C)CO)C(=O)c2cc(C#CC3CCCCC3)cnc2O[C@H]1CN(C)Cc1ccncc1 | i |
| Cc1cc(C)nc(SCc2nnnn2-c2ccccc2)n1 | i |
| Cc1ccc(S(=O)(=O)N(C)C[C@H]2Oc3cc(C4=CCCC4)ccc3S(=O)(=O)N([C@H](C)CO)C[C@@H]2C)cc1 | i |
| Cc1nnc(SCC(=O)Nc2ccc(Cl)cc2O)s1 | i |
| Cc1ccc(C(C)C)c(OCC(=O)Nc2ccccc2C#N)c1 | i |
| CC(C)COCC(CN(Cc1ccccc1)c1ccccc1)N1CCCC1 (stereo not drawn) | i |
| Cc1cc(Cl)c(S(=O)(=O)Nc2cccc(Br)c2)cc1OCC(N)=O | i |
| CN1CCC(OC(=O)COc2ccc(Br)cc2)CC1 | i |
| COc1cccc(NC(=O)CSc2nnc(-c3ccc(Cl)cc3)n2C)c1 | i |
| C[C@H]1CN([C@@H](C)CO)S(=O)(=O)c2ccc(/C=C/c3ccccc3)cc2O[C@@H]1CN(C)C(=O)CN1CCOCC1 | i |
| COc1ccc(S(=O)(=O)N(C)CC(=O)Nc2cc(C(F)(F)F)ccc2Cl)cc1C | i |
| CCCN(C)C[C@H]1Oc2ncc(C#CCOC)cc2C(=O)N([C@@H](C)CO)C[C@H]1C | i |
| CC(=O)N[C@@H](Cc1c[nH]c2ccccc12)C(N)=O | i |
| O=C(CC1NC2CCCCC2NC1=O)Nc1ccc(Cl)c(Cl)c1 (stereo not drawn) | i |
| C[C@@H]1CN([C@@H](C)CO)C(=O)c2cc(C#CCC3CCCC3)cnc2O[C@H]1CN(C)Cc1ccccn1 | i |
| Cc1ccc(F)c(NC(=O)CSc2ncn(-c3ccccc3)n2)c1 | i |
| C[C@@H]1CN([C@H](C)CO)S(=O)(=O)c2ccc(-c3ccccc3)cc2O[C@H]1CN(C)C | i |
| O=C(c1ccccc1)N1Cc2ccccc2[C@H]2OC(c3ccc(OCCCO)cc3)=N[C@@]2(CCS(=O)(=O)c2ccccc2)C1=O | i |
| O=C(CSc1nc2ccc(NC(=O)c3ccccc3Cl)cc2s1)Nc1ccc(F)cc1 | i |
| COCC(=O)N1[C@H](CO)[C@H](c2ccc(C3=CCCCC3)cc2)[C@@H]1C#N | i |
| COc1ccccc1C#Cc1ccc([C@H]2[C@@H](CO)N(C(=O)C3CCCCC3)[C@H]2C#N)cc1 | i |
| COc1ccc(-c2ccc(CCC(=O)O)n2-c2ccc(Br)cc2)cc1 | i |
| CCCN(C)C[C@H]1Oc2cc(C#CCC3CCCC3)ccc2S(=O)(=O)N([C@@H](C)CO)C[C@@H]1C | i |
| CO[C@@H]1CN(C)C(=O)c2ccc(NC(=O)c3cccc(F)c3)cc2OC[C@@H](C)NC[C@H]1C | i |
| CC(C)n1cc(-c2nc(C(C)(C)C)cs2)c(=O)n(Cc2ccccc2)c1=O | i |
| COc1ccc(Cl)cc1NC(=O)C(=O)NCc1cccnc1 | i |
| O=C(NCc1ccco1)c1ccc(NC(=O)C2COc3ccccc3O2)cc1 (stereo not drawn) | i |
| O=C(Nc1ccccc1C(=O)NCc1ccco1)c1ccccc1Cl | i |
| Cc1ccccc1OCC(=O)Nc1cccc(NC(=O)C(C)C)c1 | i |
| CC(C)NC(=O)N[C@H]1C=C[C@@H](CC(=O)NCc2ccc(Oc3ccccc3)cc2)O[C@H]1CO | i |
| NNC(=O)Cc1csc(-c2cccc(-n3cccc3)c2)n1 | i |
| CCOC(=O)N1CCN(Cc2nnc(-c3ccc4c(c3)OCO4)o2)CC1 | i |
| Cn1cnc(S(=O)(=O)N(Cc2ccccc2)Cc2ccccc2N2CCC(C(=O)O)CC2)c1 | i |
| CCCC#Cc1ccc2c(c1)O[C@@H](CN(C)CCC)[C@@H](C)CN([C@@H](C)CO)S2(=O)=O | i |
| O=C(CSc1nnnn1-c1ccccc1)Nc1ccc(F)c(Cl)c1 | i |
| CCOC(=O)c1c(NC(=O)C(C)n2nc([N+](=O)[O-])c(Br)c2C)sc(C)c1C (stereo not drawn) | i |
| O=C(C[C@H]1C=C[C@H](NC(=O)c2cccc(F)c2)[C@H](CO)O1)Nc1nccs1 | i |
| CN1CCN(c2ccccc2NC(=O)COc2ccccc2[N+](=O)[O-])CC1 | i |
| Cc1ccccc1-c1ccc2c(c1)O[C@H](CN(C)C)[C@@H](C)CN([C@H](C)CO)S2(=O)=O | i |
| CS(=O)(=O)N(CC(=O)Nc1ccc(Cl)cc1)c1cccc([N+](=O)[O-])c1 | i |
| NC(=O)C1(N2CCCCC2)CCN(C(=O)CSc2nc3ccccc3s2)CC1 | i |
| CN(C)C(=O)C[C@H]1CC[C@@H](NC(=O)C2CCOCC2)[C@H](CO)O1 | i |
| Cc1ccccc1-c1nnc(SCC(=O)Nc2ccc(N3CCOCC3)cc2)o1 | i |
| CCCNC(=O)N[C@@H]1C=C[C@H](CC(=O)NCCc2ccccc2)O[C@@H]1CO | i |
| Cc1ccc(N(CC(=O)Nc2ccccc2Sc2ccccc2)S(C)(=O)=O)c(C)c1 | i |
| CO[C@@H]1CN(C)C(=O)c2ccc(NC(C)=O)cc2OC[C@@H](C)N(Cc2ccccc2F)C[C@H]1C | i |
| O=C1c2cccc3cccc(c23)C(=O)N1OS(=O)(=O)c1cccc2cccnc12 | i |
| CCOC(=O)c1c(-c2ccc(OC)cc2)csc1NC(=O)c1ccccc1[N+](=O)[O-] | i |
| CN(CC(=O)Nc1ccccc1Cl)S(=O)(=O)c1ccc(Cl)cc1 | i |

The final two entries of the part before come first, to join the parts.
| Compound | ID4 SMM |
| --- | --- |
| CCOC(=O)c1c(-c2ccc(OC)cc2)csc1NC(=O)c1ccccc1[N+](=O)[O-] | i |
| CN(CC(=O)Nc1ccccc1Cl)S(=O)(=O)c1ccc(Cl)cc1 | i |
| COc1ccc(-c2ccc3c(c2)O[C@@H](CN(C)C)[C@@H](C)CN([C@H](C)CO)S3(=O)=O)cc1 | i |
| O=C(C[C@H]1C=C[C@@H](NS(=O)(=O)c2ccccc2)[C@H](CO)O1)NCc1ccc(Cl)c(Cl)c1 | i |
| C[C@@H]1CN([C@@H](C)CO)C(=O)c2cc(C3=CCCCC3)cnc2O[C@H]1CN(C)Cc1ccncc1 | i |
| C[C@@H]1CN([C@H](C)CO)C(=O)c2cc(C#Cc3cccc(F)c3)cnc2O[C@@H]1CN(C)CC1CC1 | i |
| O=C(C[C@H]1C=C[C@H](NC(=O)C2CC2)[C@@H](CO)O1)Nc1ccccc1 | i |
| CCn1c(=O)c(C(=O)NCCN2CCCCC2)c(O)c2ccccc21 | i |
| CC(=O)Nc1ccc(Br)cc1-c1nc2ccccc2nc1OCc1cccc(Cl)c1 | i |
| CCOC(=O)c1c(NC(=O)c2ccc(Cn3cc(Br)cn3)o2)sc2c1CCCC2 | i |
| Cc1cc(C)cc(OCC(=O)Nc2cccc(-c3nnc(-c4ccccc4)o3)c2)c1 | i |
| N#Cc1c(C(F)(F)F)cc(-c2cccs2)nc1SCC(=O)Nc1sc2c(c1C#N)CCC2 | i |
| CC(=O)N(C)C[C@H]1Oc2ncc(C3=CCCC3)cc2C(=O)N([C@H](C)CO)C[C@H]1C | i |
| COc1ccc(NC(=O)CSc2nnnn2C)cc1Cl | i |
| COc1cccc2cc(C(=O)C3C(=O)C(=O)N(CCCN4CCOCC4)C3c3cccnc3)oc12 (stereo not drawn) | i |
| C[C@H](CO)N1C[C@H](C)[C@H](CN(C)C(=O)[C@H](Cc2ccccc2)N(C)C)OCc2ccccc2-c2ccccc2C1=O | i |
| O=C(Cc1ccccc1[N+](=O)[O-])Nc1ccc2c(c1)OCCO2 | i |

Quoted at random: two records from the list.
| Compound | ID4 SMM |
| --- | --- |
| O=C(C[C@H]1C=C[C@@H](NS(=O)(=O)c2ccccc2)[C@H](CO)O1)NCc1ccc(Cl)c(Cl)c1 | i |
| C[C@@H]1CN([C@H](C)CO)C(=O)c2cc(C#Cc3cccc(F)c3)cnc2O[C@@H]1CN(C)CC1CC1 | i |

Remaining list, next part.
| Compound | ID4 SMM |
| --- | --- |
| C[C@@H]1CN([C@H](C)CO)C(=O)c2cc(C3=CCCCC3)cnc2O[C@@H]1CN(C)CC1CCOCC1 | i |
| COc1ccccc1S(=O)(=O)N[C@H]1C=C[C@@H](CC(=O)NCc2cccc(F)c2)O[C@@H]1CO | i |
| C/C=C/c1ccc2c(c1)O[C@H](CN(C)Cc1cccc(F)c1)[C@H](C)CN([C@@H](C)CO)S2(=O)=O | i |
| Cc1ccc(OCc2nc(N)nc(N(C)C)n2)cc1C | i |
| COc1ccccc1CNC(=O)C[C@H]1C[C@H]2c3cc(N(C)C)ccc3O[C@H]2[C@@H](CO)O1 | i |
| Cc1ccc2oc(C(=O)Nc3sc4c(c3C(=O)NC3CCS(=O)(=O)C3)CCC4)c(C)c2c1 (stereo not drawn) | i |
| Cn1c(SCC(=O)Nc2ccc(Br)cc2Cl)nnc1-c1ccncc1 | i |
| COCC#Cc1cnc2c(c1)C(=O)N([C@H](C)CO)C[C@H](C)[C@H](CN(C)C(=O)CCN1CCCCC1)O2 | i |
| COc1cc(C2NC(=O)NC(c3ccccc3)=C2C(=O)c2ccccc2)cc(Cl)c1OCC(N)=O (stereo not drawn) | i |
| COc1ccc(-c2nc3cc(C(C)C)ccc3o2)cc1NC(=O)COc1ccc(C)cc1 | i |
| Cc1cccc(C)c1N(CC(=O)NC1CCCCC1)S(C)(=O)=O | i |
| COc1ccc(OC)c(NC(=O)CSc2ncccn2)c1 | i |
| Nc1nc(CSc2ccccn2)nc(Nc2ccccc2)n1 | i |
| O=C(C[C@@H]1C[C@H]2c3cc(NS(=O)(=O)c4ccc(F)cc4)ccc3O[C@H]2[C@H](CO)O1)N1CCOCC1 | i |
| Cc1ccc(-c2csc3ncnc(SCC(=O)Nc4ccccc4F)c23)cc1 | i |
| C[C@@H]1CN([C@@H](C)CO)C(=O)c2cc(C#CC3(O)CCCC3)cnc2O[C@@H]1CN(C)C | i |
| c1ccc(-n2nnnc2CSc2ncn[nH]2)cc1 | i |
| CC(C)NC(=O)N(C)C[C@@H]1Oc2ccc(N(C)C)cc2C(=O)N([C@@H](C)CO)C[C@@H]1C | i |
| Cc1noc(C)c1S(=O)(=O)N(C)C[C@H]1OCc2ccccc2-c2c(n(C)c3ccccc23)C(=O)N([C@H](C)CO)C[C@@H]1C | i |
| Cc1ccc(S(=O)(=O)NCC(=O)Nc2ccc(Cl)c(C(F)(F)F)c2)cc1 | i |
| C/C=C/c1cnc2c(c1)C(=O)N([C@@H](C)CO)C[C@H](C)[C@@H](CN(C)Cc1ccccc1)O2 | i |
| Clc1ccc(-c2nnc(SCc3nc4ccccc4[nH]3)o2)c(Cl)c1 | i |
| O=C(Cc1ccccc1)N[C@@H]1CC[C@@H](CC(=O)N2CCCCC2)O[C@H]1CO | i |
| COc1ccc(-c2cc(=O)[nH]c(SCC(=O)Nc3cccc(Cl)c3C)n2)cc1 | i |
| O=C(Nc1ccccc1C(=O)OCc1ccc([N+](=O)[O-])cc1)c1ccco1 | i |
| CS(=O)(=O)Nc1ccc2c(c1)[C@@H]1C[C@@H](CC(=O)N3CCOCC3)O[C@@H](CO)[C@@H]1O2 | i |

Only part of the results is shown, so the mix of outcomes need not match the whole.
